Source: PubChem (National Center for Advancing Translational Sciences (NCATS))
gsp antag – antagonists of gsp mutant (McCune-Albright syndrome); gsp-mutant cells, cAMP HTRF, 30 min; control for the full effect not named in the record; AID 624288; actives 0.4% (n = 340,000); Potency, µM (highest dose often 76.9 µM), for inactives: top-dose activity change, negative = inhibition, most hits filed as inhibitors; active = falling curve of any shape with a large fitted effect; inconclusive = falling curve, mostly with a smaller effect; inactive = flat or rising curve; cell line not stated here;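 also: intracellular cAMP measured with PDE inhibitor Ro 20-1724 present during compound exposure; potency is read from the fitted curve at half-maximal effect; % is scaled to controls: 0 for no effect and ±100 for the full control effect; nearly all actives have a fitted effect of over 65% in size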
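Cells in G418 medium, seeded 16-24 h, 37C; buffer exchange to DPBS + 1 mM CaCl2, 0.5 mM MgCl2, 0.05% BSA; cpds in DMSO + […] (300 uM stock), 30 min 37C; HTRF cAMP detection.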
ClpP mod – qHTS Assay for Activators of ClpP. ATP-dependent Clp protease proteolytic subunit (Bacillus subtilis (strain 168)), P80244. purified B. subtilis ClpP, FRET peptide cleavage, 20 min. Potency, µM (highest dose often 57.5 µM), without a hit: top-dose activity change, negative = active. actives 1.9% (n = 340,000). AID 651965, 2013; active = well fitted falling curve with a large enough effect; inconclusive = small, poorly fitted or top-dose-only effect; inactive = no such curve, though single readings can be large or run the other way; also: potency is read from the fitted curve at half-maximal effect; the source files actives as falling curves though it sought activators and does not explain the sign; nearly all actives have a fitted effect of over 65% in size; many hits overshoot -100%
Target sequence (P80244 whole entry, looked up): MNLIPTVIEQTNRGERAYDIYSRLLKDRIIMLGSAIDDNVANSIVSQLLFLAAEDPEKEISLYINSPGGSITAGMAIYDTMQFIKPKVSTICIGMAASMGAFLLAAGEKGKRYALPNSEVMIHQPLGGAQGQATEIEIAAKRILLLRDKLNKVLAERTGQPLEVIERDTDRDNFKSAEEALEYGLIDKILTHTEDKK
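FRET quenching reversal measured ClpP activation: 10 microg/mL B. subtilis ClpP at pH 8 with the FRET-FV decapeptide, read at 430 nm after 320 nm excitation. The 20-min minus 0-min signal was scaled between DMSO/no-enzyme wells and ADEP (5.8 microM final).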
CtBP-E1A inh – CtBP/E1A binding inhibition | activity change, % (concentration not given with the values) | AlphaScreen GST-E1A/His-CtBP binding, 1536-well; stronger effect = lower value; control for the full effect not named in the record | actives 0.49% (n = 340,000); in the data active means activity change below about -65%; inconclusive means about -30% to -65%; inactive means above about -30%; also: % is scaled to controls: 0 for no effect and ±100 for the full control effect
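Homogeneous bead-based format: GST-tagged E1A captured on glutathione donor beads, His-tagged CtBP on nickel acceptor beads; compounds precede bead addition by 2 h at 37 °C.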
Menin MLL FP FL – inhibitors of human menin-MLL interaction, wild-type MLL peptide; Fluorescence polarization, fluorescein-MLL peptide displacement from menin; FP activity change, % at 61.4 µM; 290,000 tested, under 10 active; AID 1766; inconclusive = falling polarisation curve, or a change in total fluorescence; inactive = total fluorescence flat and polarisation flat or rising; no compound was filed as active; the % refers to the polarisation; negative = inhibition;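 also: % of control where 0% means no effect; inhibitors lower the polarisation; unlabelled MLL peptide was the positive control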
TRPV1 PAM – enhances activation of the human vanilloid receptor TRPV1. Q8NER1. TRPV1-expressing cells, Fluo-8 calcium influx, capsaicin EC20 potentiation; host cell line not named in the record; control for the full effect not named in the record. potentiation, % at 8.33 µM. actives 0.02% (n = 320,000); active means potentiation above 80%; inconclusive means 30% to 80%; inactive means below 30%; also: 0% is about no effect
Target sequence (Q8NER1 whole entry, looked up): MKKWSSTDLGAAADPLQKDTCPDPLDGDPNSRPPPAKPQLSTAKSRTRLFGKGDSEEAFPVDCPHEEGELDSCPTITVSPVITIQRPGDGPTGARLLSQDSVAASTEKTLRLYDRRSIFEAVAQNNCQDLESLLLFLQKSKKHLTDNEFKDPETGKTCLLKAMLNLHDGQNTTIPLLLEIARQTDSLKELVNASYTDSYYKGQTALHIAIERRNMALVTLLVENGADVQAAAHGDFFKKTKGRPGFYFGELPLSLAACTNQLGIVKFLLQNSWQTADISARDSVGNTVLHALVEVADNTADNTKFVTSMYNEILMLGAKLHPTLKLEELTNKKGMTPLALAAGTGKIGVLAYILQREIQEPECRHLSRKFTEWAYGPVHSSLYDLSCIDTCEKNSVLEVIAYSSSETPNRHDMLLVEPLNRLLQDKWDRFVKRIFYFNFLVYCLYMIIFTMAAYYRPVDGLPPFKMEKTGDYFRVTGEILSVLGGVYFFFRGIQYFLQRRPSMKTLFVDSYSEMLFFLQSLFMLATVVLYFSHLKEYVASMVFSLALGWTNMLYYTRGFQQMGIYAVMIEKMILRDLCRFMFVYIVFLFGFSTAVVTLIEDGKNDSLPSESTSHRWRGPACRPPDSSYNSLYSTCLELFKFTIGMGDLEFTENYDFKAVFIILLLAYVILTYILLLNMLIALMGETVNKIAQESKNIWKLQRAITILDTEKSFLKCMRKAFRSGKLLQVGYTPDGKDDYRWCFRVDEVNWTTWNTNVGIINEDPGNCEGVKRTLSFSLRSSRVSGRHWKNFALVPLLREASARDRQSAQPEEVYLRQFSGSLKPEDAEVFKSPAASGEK
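Fluo-8 calcium influx in TRPV1-expressing cells, kinetic read (ex 480/em 520 nm). Compound added and read 3 min for agonist activity, followed by capsaicin at EC20 final and 2 min further read for enhancement.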
Sfp PPTase inh – inhibitors of Bacillus subtilis Sfp phosphopantetheinyl transferase. Potency, µM, for the others: max response, negative = inhibition, hits mostly inhibitors. Q9F4F7. Biochemical Sfp PPTase activity, qHTS. actives 3.5% (n = 310,000); active = well fitted inhibition curve with a large enough effect; inconclusive = small, poorly fitted or top-dose-only effect, or another doubt; inactive = no such curve, though single readings can be large or run the other way;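 also: the enzyme is Sfp with the accession as filed and its product quenches rhodamine fluorescence; potency is read from the fitted curve at half-maximal effect; 0% = enzyme reaction without inhibitor and -100% = no enzyme wells; top concentration of the series not given in the record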
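After 15 min at room temperature with compound, 15 nM Sfp received 5 uM rhodamine-CoA plus 12.5 uM BHQ-2-ybbR (50 mM Hepes pH 7.6, 10 mM MgCl2). Rate came from the fluorescence difference over 30 min, ex 525/em 598 nm.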
gsp ag – gsp mutant agonism; actives 0.13% (n = 340,000); gsp mutant cells, cAMP HTRF, 30 min; control for the full effect not named in the record; Potency, µM (top dose mostly 76.9 µM), without a hit: top-dose activation (cAMP increase), actives largely listed as activators; AID 624287; active = well fitted activation curve with a large enough effect; inconclusive = small, poorly fitted or top-dose-only effect, or another doubt; inactive = no such curve, though single readings can be large or run the other way; cell line not stated here;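 also: phosphodiesterase inhibitor Ro 20-1724 added with compounds to block cAMP breakdown; potency is read from the fitted curve at half-maximal effect; nearly all actives have a fitted effect of over 60% in size; about a fifth of the inactives were tested at one dose only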
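Cells in DMEM/10% FBS with G418 were pretreated with compounds in DMSO plus […] (300 uM stock) for 30 min at 37C. cAMP was measured by HTRF (cAMP-d2 plus anti-cAMP antibody-K) after 30 min at room temperature.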
Starred values were filed as active, the others as inactive; ? = inconclusive; . = no result given; & = joins results of further samples; ! = not confirmed by another sample; [ ] = another dose, or the depositor's remark.

no.	mol	ClpP mod	CtBP-E1A inh	gsp ag	Menin MLL FP FL	Sfp PPTase inh	gsp antag	TRPV1 PAM
1	Cc1ccc(C(=O)N2CCN(C3c4cccc5cccc(c45)C3NS(=O)(=O)c3ccccc3)CC2)cc1 (centres undefined)	-3.9%	-6	-8%	5.0	3%	-17%	15
2	CC(=O)C1C(c2ccc3ncccc3c2)NC(=O)NC1(O)C(F)(F)F (centres undefined)	0.5%	9	-9%	1.0	10%	-2%	-22
3	CC(=O)c1cc(C(=O)Nc2ccc3ccccc3c2)c(C)o1	.	-20	24%	2.7	5%	6%	0
4	O=C(/C=C/c1ccccc1)N/C(=C\c1ccco1)C(=O)O	.	7	-2%	-0.5	16%	-3%	4
5	CC1=C(Nc2ccc(C(=O)O)cc2)C(=O)c2ccccc2C1=O	0.9%	-18	20%	-2.8	-1%	?	6
6	CCOc1ccc(NS(=O)(=O)c2cc(Cl)ccc2OC)cc1	-5.1%	9	-1%	-3.8	-14%	-5%	20
7	CN1CCN(C2=Cc3ccccc3Sc3cc(F)c(F)cc32)CC1	1.1%	-20	-30%[inhibitor]	1.7	79µM*	1%	-6
8	COc1ccc(C(=O)NC(=S)SCC(=O)O)cc1	1.5%	0	?	11	50µM*	-4%	4
9	N=c1n(CCOc2ccccc2)c2ccccc2n1CCN1CCOCC1	-0.2%	7	-40%	-0.4	4%	9%	16
10	CCOC(=O)N1CCN(c2c(NCCCN(C)c3ccccc3)c(=O)c2=O)CC1	1.1%	1	-2%	4.6	14%	-12%	-1
11	CC(Sc1nc(-c2ccccc2)cc(C(F)(F)F)n1)C(=O)N1CCCC1 (centres undefined)	1.2%	0	-48%[inhibitor]	0.2	14%	0%	-5
12	COC(=O)c1ccccc1NC(=O)Cc1ccccc1OC	-0.7%	11	-9%	-1.1	2%	-3%	1
13	O=C(CCCOC(=O)c1ccc(O)cc1)c1ccccc1	-1.1%	2	11%[15.4 µM]	.	.	4%	.
14	C[C@H](NC(=O)c1nc[nH]c1C(=O)N1CCc2ccccc2C1)c1ccccc1	-3.9%	0	.	.	.	1%	7
15	Cc1nc(SCC(=O)NC2CCS(=O)(=O)C2)c2c(C)c(C)sc2n1 (centres undefined)	-6.3%	7	?	.	.	24%	-1
16	Cc1nc2ccc(NC(=O)c3cc(S(=O)(=O)N4CCOCC4)ccc3C)cc2s1	1.0%	-3	-10%	3.6	5%	-25%	3
17	CCOC(=O)N/N=C(\c1ccccc1)C(O)c1ccccc1 (centres undefined)	0.4%	9	-6%[15.4 µM]	-6.2	3%	5%	14
18	C[C@@H]1CN([C@H](C)CO)C(=O)CCCn2nncc2CO[C@H]1CN(C)S(=O)(=O)c1ccccc1	1.0%	5	-115%[inhibitor]	.	.	.	.
19	O=C(Nc1ccc(CN2CCOCC2)cc1)c1cccs1	0.6%	3	1%	0.2	15%	5%	-23
20	CCCCCn1c(=O)[nH]c2cc(C(=O)NCCCN3CCC(C)CC3)ccc2c1=O	28µM*	0	-9%	3.4	-8%	4%	-6
21	CCC(=O)Nc1nonc1-c1nc2ccccc2n1Cc1ccc(Cl)c(Cl)c1	.	5	15%	.	.	-1%	.
22	Cc1cc(=O)oc2cc(OC(C)C(=O)NC3CCCC3)ccc12 (centres undefined)	.	0	0%[15.4 µM]	3.9	12%	.	-3
23	Cn1c(=NN=Cc2ccccc2OCCO)sc2ccccc21	-3.3%	4	10%	.	.	.	.
24	CCC(=O)N(Cc1cc2cc(OC)ccc2[nH]c1=O)c1ccccc1OC	4.0%	0	-28%	.	.	.	.
25	COc1cc2ccc(CC(N)=O)cc2cc1OC	-5.8%	4	-52%[inhibitor]	.	.	.	.
26	CN1CCN(CC#CC2(O)CCCCC2)CC1	-1.9%	-4	0%	1.1	9%	6%	-2
27	COc1ccc(S(=O)(=O)N2CCN(C3CCCCCCC3)CC2)cc1	-0.1%	-5&-4	2%	-5.1&-3.3	40µM*!	-11%&3%	-30&-4
28	COc1ccc(C(=O)N2CCN(CCc3ccccn3)CC2)cc1	-2.1%&1.4%	-5	?	-3.5	6%	9%	-14
29	O=C(O)c1ccc(S(=O)(=O)NC2CC2)cc1	-0.6%	3	-24%	2.3	20%	5%	1
30	CCOCCOC(=O)c1[nH]c2c(c1C)C(=O)CC(c1cccs1)C2 (centres undefined)	.	4	14%[15.4 µM]	-0.2	-16%	18%	-50
31	C[C@H]1CN([C@@H](C)CO)C(=O)c2cccc(NC(=O)c3cnccn3)c2O[C@@H]1CN(C)C(=O)Nc1ccc2c(c1)OCO2	0.2%	2	-16%	.	.	4%	.
32	NC(=O)c1cccc2cc3ccccc3cc12	.	.	-6%[15.4 µM]	3.1	15%	10%	4
33	O=C(NCCCN1CCOCC1)C1CCC(=O)N1CCc1ccccc1 (centres undefined)	1.3%	-1	-6%	-0.7	16%	4%	.
34	O=C(NC(=S)Nc1cnc2ccccc2c1)c1ccccc1	-1.3%	5	?	-0.5	56µM*	-20%	3
35	O=C(NCc1ccccc1Br)c1ccco1	1.4%	2	4%	4.1	-2%	3%	1
36	N/C(=N\N=C\c1cccc([N+](=O)[O-])c1)c1nonc1N	-3.2%	-17	-76%[inhibitor]	0.1	9%	-5%	?
37	Cc1ccccc1NC(=S)N(CCN(C)C)C(C)c1cccnc1 (centres undefined)	-6.9%	8	-2%[15.4 µM]	-9.8	13%	13%	6
38	COc1ccccc1C(=O)C1Nc2ccccc2-c2nnc(SC)nc2O1 (centres undefined)	-0.5%	-16	-38%[inhibitor]	0.8	-1%	1%	-19
39	CCc1ccc(S(=O)(=O)n2c(C)nc3ccccc32)cc1	0.4%	3	11%[15.4 µM]	4.1	0%	-9%	8
40	O=C(NCc1ccco1)c1cc(-c2cccs2)on1	-4.2%	0	10%	8.3	?	-5%	2
41	Nc1cccc2c1C(=O)N(C(=O)/C=C/c1cccc(Br)c1)C2=O	.	-25	32%[15.4 µM]	-26	7.1µM*	6%	.
42	O=C(COc1ccc(S(=O)(=O)Nc2ccccc2)cc1)N1CCOCC1	-1.3%	2	?	-1.2	10%	0%	1
43	O=C(c1ccc(S(=O)(=O)N2CCCCC2)cc1)N(c1ccccn1)C1CCCCC1	.	0	-28%[15.4 µM]	4.1	7%	-24%	1
44	COc1ccc([C@H](C)NC[C@H](O)c2ccc(O)c(NC=O)c2)cc1	1.4%	-2	.	-3.9	17%	1%	5
45	CCOc1ccc(CN(C)C(=O)CNC(=O)c2cc(OC)c(OC)c(OC)c2)cc1	-0.9%	.	-25%	0.7	13%	-4%	-9
46	O=C(O)c1cc(Cl)c(Cl)cc1C(=O)Nc1cccnc1	.	.	.	-0.2	3%	.	13
47	Cn1c(=O)c2c(nc(SCC(=O)N3CCCCCC3)n2C)n(C)c1=O	1.3%	-1	?	-2.0	15%	9%	7
48	CSc1nc(-c2ccco2)nn1C(=O)CCc1ccccc1	0.3%	2	1%	7.7	-65%	14%	7
49	COc1ccccc1N(C)S(=O)(=O)c1ccc(C)c(C(=O)NCc2ccccn2)c1	-2.3%	-2	-31%[inhibitor]	.	.	-4%	2
50	CCOC(CNC(=O)C(=O)NCC(c1ccco1)N1CCN(c2ccc(OC)cc2)CC1)OCC (centres undefined)	-0.8%	3	-13%	2.4	-10%	13%	0
51	CC(Oc1ccc(Cl)cc1Cl)C(=O)Nc1ccc(N2CCN(C)CC2)cc1 (centres undefined)	0.9%	-8	-30%	-1.8	-2%	25%	3
52	COc1ccc(S(=O)(=O)/C(C#N)=C/Nc2cccc(OC)c2)cc1	1.1%	7	16%	-3.0	11%	1%	-4
53	O=C(c1cccs1)N1CCN(C(=O)C2CCCO2)CC1 (centres undefined)	-5.3%	0	12%	0.3	9%	5%	-2
54	CCCCC1OC23CCCCC2C(C#N)(C(=N)O3)C1(C#N)C#N (centres undefined)	?	0	7%	?	20%	-6%	2
55	COc1ccccc1C(=O)NNC(=O)Cc1ccccc1	.	7	?	-2.0	8%	9%	-6
56	O=C(NCCOc1ccccc1)c1ccccc1	-2.0%	-2	-11%	2.1	-3%	8%	-15
57	CO/N=C(/CS(=O)Cc1ccccc1Cl)c1ccc(Cl)cc1Cl (centres undefined)	0.6%	10	-37%	-2.2	-1%	-16%	1
58	CCC(=O)c1ccc(CCCCCC(=O)O)s1	1.9%	1	28%	2.0	8%	6%	-3
59	O=C(COC(=O)CCCN=C1NS(=O)(=O)c2ccccc21)NC(=O)NC1CCCC1	.	3	-12%[15.4 µM]	0.1	8%	0%	0
60	COc1ccc(C(OC(=O)c2ccco2)C(=O)NC(C)(C)C)cc1 (centres undefined)	-7.3%	-3	8%[15.4 µM]	-4.1	10%	5%	10

(cont.)
no.	mol	ClpP mod	CtBP-E1A inh	gsp ag	Menin MLL FP FL	Sfp PPTase inh	gsp antag	TRPV1 PAM
61	Cc1ccc(S(=O)(=O)N/N=C/c2cc([N+](=O)[O-])ccc2O)cc1[N+](=O)[O-]	.	0	6%[15.4 µM]	-0.6	?	-13%	7
62	O=C(NC(=S)Nc1ccc(N2CCOCC2)cc1)c1ccccc1	.	-13	-4%[15.4 µM]	0.3	-26%	3%	-1
63	CC(=O)Nc1ccc(N2CCc3c(C)c(C#N)c4nc5ccccc5n4c32)cc1	.	.	.	?	14%	.	9
64	O=C(c1ccc(N2CCOCC2)cc1[N+](=O)[O-])N1CCOCC1	.	1	-8%	1.8	12%	11%	0
65	CC(=O)Nc1ccc(S(=O)(=O)N[C@@H](C)C(=O)OCc2ccc(Cl)cc2)cc1	1.1%	2	-36%[inhibitor]	7.1	-1%	?	9
66	O=C(c1cccc(Br)c1)c1cn(-c2ccccc2)nc1C(=O)c1ccccc1	-1.2%	2	-57%[inhibitor]	-0.9	12%	-17%	-15
67	CCc1nc(NCc2cccs2)c2nnn(Cc3ccccc3)c2n1	-6.5%	7	?	.	.	.	.
